Rce1 inh – inhibitors of yeast Ras-converting enzyme | calls only | yeast membranes, quenched prenylated peptide cleavage fluorescence | Q03530 | 0.27% of 290,000 active;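 active means fall in fluorescence gain of 50% or more versus controls, with final raw signal at or below 3038400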;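 further: plate controls were neutral control wells for no effect and wells lacking membranes for full effect; tested at 10 µM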
Target sequence (Q03530 whole entry, looked up): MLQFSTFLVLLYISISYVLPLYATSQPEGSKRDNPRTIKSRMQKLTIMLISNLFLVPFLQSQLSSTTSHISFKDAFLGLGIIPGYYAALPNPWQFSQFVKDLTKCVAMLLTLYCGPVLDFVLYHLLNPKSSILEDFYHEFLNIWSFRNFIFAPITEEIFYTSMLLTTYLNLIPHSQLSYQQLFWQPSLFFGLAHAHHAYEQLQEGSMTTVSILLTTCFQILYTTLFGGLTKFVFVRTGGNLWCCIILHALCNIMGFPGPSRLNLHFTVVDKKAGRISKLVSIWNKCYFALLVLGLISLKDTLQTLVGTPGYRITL
Yeast UUG start – modulators of start codon recognition fidelity in yeast; 0.13% of 350,000 active; S. cerevisiae UUG-firefly luciferase reporter, luminescence/redox ratio; activity score, % at 18.7 µM; AID 602363;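 active means replicate mean at a twofold rise or more, about +100% in these data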;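 further: firefly luciferase made from a UUG start codon reports start codon fidelity; reporter light over untreated wells divided by growth signal over untreated wells; some hits fall short of that in this replicate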
PABP polyA inh – blocks human PABP binding to poly(A) RNA | P11940 | fluorescence polarization | inhibition, % at 35 µM | 1% of 290,000 active | AID 2014;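 active means 50% or more with normal probe brightness, or confirmed in later tests; about a fifth of its hits are not listed in these tables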;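 further: calls also rest on retests at 20 µM and on dose response follow-up; controls were probe without protein and protein plus probe with vehicle; some compounds called inactive have numbers as strong as hits; many hits fall short of the cut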
Target sequence (P11940 whole entry, looked up): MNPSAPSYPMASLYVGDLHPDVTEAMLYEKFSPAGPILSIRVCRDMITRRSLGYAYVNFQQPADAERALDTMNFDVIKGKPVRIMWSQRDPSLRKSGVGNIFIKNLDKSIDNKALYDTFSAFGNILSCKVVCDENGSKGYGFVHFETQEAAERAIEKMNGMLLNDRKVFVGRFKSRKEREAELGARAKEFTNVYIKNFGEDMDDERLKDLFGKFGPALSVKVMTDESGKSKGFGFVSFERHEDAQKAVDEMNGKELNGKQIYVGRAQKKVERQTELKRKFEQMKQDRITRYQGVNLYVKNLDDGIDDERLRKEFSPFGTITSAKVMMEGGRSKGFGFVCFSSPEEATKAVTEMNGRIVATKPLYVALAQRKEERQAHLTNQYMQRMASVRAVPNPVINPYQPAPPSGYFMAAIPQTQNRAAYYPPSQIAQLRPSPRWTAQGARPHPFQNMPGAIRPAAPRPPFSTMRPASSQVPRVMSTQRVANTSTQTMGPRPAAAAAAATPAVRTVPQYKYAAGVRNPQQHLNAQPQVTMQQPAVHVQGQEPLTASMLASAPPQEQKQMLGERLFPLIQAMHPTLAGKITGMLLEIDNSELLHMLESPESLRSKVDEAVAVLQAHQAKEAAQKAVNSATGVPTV
HIV Env fusion – blocks HIV Env-driven cell-cell fusion | HeLa-JRFL Env/CEM21 cell fusion, luciferase | inhibition, % at 12.3 µM | 1.1% of 360,000 active | AID 651610;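 active means mean replicate inhibition score of at least 50 and every replicate individually at or above 50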;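 further: 0% = plate neutral controls and 100% = maraviroc near 300 nM; one replicate is shown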
CSC inhib – blocks cancer stem cells; inhibition, % at 7.5 µM; cancer stem cell-like cells viability, luminescence; AID 2717; 1.1% of 300,000 active;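 active means mean at 75% or more and at least half the replicates too; tested in HMLE shEcad cells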;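 further: 0% = median of negative and 100% = median of positive control wells; the first replicate is given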
eIF4H inh – inhibitors of RNA binding by human eIF4H | Q15056 | eIF4H fluorescence polarization binding assay | inhibition, % at 35 µM | 0.94% of 290,000 active | AID 2012;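 active means 50% or more with normal probe brightness, or confirmed in later tests; about a fifth of its hits are not listed in these tables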;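 further: calls also rest on retests at 20 µM and on dose response follow-up; 0% = protein and probe with vehicle and 100% = probe without protein; strong numbers were not always called active; many hits fall short of the cut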
MT1-MMP act inh – blocks activation of human MT1-MMP. AID 651647. 0.061% of 360,000 active. P50281. GFP/RFP ratio change, % at 20 µM. HT1080 RFP-PRO-GFP cells, GFP/RFP ratio fluorescence, overnight; percent of plate control window, DMSO zero;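 active means GFP/RFP ratio change of at least 30% with cell ATP level not reduced by more than half and red fluorescence within 50% of control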; further: strong numbers were not always called active
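system = RFP-PRO-GFP reporter HT1080 cells | dosing = 20 µM single dose, 1% DMSO | timing = overnight cell settling, then overnight compound exposure, 37 °C, 5% CO2 | read-out basis = GFP/RFP fluorescence ratio | controls = DMSO and RFP-L50D-GFP cell wells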
eIF4H inh retest – further read-out of eIF4H inh, marked with its call; inhibition, %; compound at 20 µM; confirmation average;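 mean of two retest wells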
PABP polyA inh retest – recorded beside PABP polyA inh, whose call it bears; inhibition, %; compound at 20 µM; confirmation repeats;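 mean of two retest wells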
MT1-MMP act inh RFP – further read-out of MT1-MMP act inh, marked with its call; RFP signal change, %; measured here: RFP expression control read;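 0 = vehicle wells; hits needed this value within 50% of zero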
Numbers without * were called inactive; i = inactive; nt = not tested or not shown.

SMILES | Rce1 inh | Yeast UUG start | PABP polyA inh | HIV Env fusion | CSC inhib | eIF4H inh | MT1-MMP act inh | MT1-MMP act inh RFP | others
Cn1c(SCC(=O)c2ccccc2)nnc1C1CC1 | i | -11 | -7 | nt | 4 | -5 | -1 | 17
CCOC(=O)C1CCN(C(=O)Cn2nc(CC)n3cccc3c2=O)CC1 | i | -6 | -4 | 7 | -19 | -4 | 6 | 8
CCn1c(C)c(C)c2cc(C(=O)N3CCc4ccccc4C3)ccc21 | i | -9 | 16 | 16 | 62 | -4 | -5 | -4
O=c1c2c3c(sc2nc2n1CCCCC2)CCC3 | i | -6 | 14 | nt | -13 | 0 | -3 | 0
Cn1nc(Oc2ncc(C(F)(F)F)cc2Cl)cc1C(F)(F)F | i | nt | -6 | -9 | -11 | -1 | 0 | -1
COCCCNS(=O)(=O)c1ccc2c(c1)OCCO2 | i | -4 | -6 | -3 | -15 | -16 | 1 | 6
COc1ccc(-c2cc(C(=O)Nc3c(C)n(C)n(-c4ccccc4)c3=O)c3ccccc3n2)cc1OC | i | -29 | 1 | 7 | -19 | -8 | 3 | 1
Cc1nn(CC(=O)NCc2cccc(F)c2)c(=O)c2cccn12 | i | -21 | -7 | 6 | 4 | 0 | -2 | 5
COC(=O)c1c(NC(=O)c2ccco2)sc2c1CCN(C(C)C)C2 | i | -17 | 5 | -14 | -6 | 0 | -5 | -1
O=C(NNc1cccc(Cl)n1)Nc1cccc(C(F)(F)F)c1 | i | nt | 8 | 16 | 1 | -4 | 0 | -8
CC12COC3(C(=O)Nc4ccc5ccccc5c4)CC1CCC32C (configuration not stated) | i | nt | -13 | -15 | 44 | -13 | -1 | 2
CN1CCC(N(C)C(=O)COc2ccc(S(=O)(=O)N3CCOCC3)cc2)CC1 | i | -19 | -3 | 6 | -14 | 8 | -4 | 3
O=C(NCc1cccnc1)Nc1ccc(Br)cc1 | i | -11 | -9 | -19 | 1 | -7 | 0 | 2
Cc1cc(C)n(CC(O)COc2cccc(OCC(O)Cn3nc(C)cc3C)c2)n1 (configuration not stated) | i | 2 | -9 | nt | -13 | 10 | 7 | -4
CCOC(=O)c1c(O)c(Cl)c(C)[nH]c1=O | i | -5 | 8 | -4 | -6 | 7 | -2 | 3
CC(Sc1ccc(Cl)cc1)C(=O)Nc1ccccc1-c1ccccc1 (configuration not stated) | i | -12 | 0 | 38 | 36 | 5 | -5 | -6
Cc1ccc(NC(=O)C2(C)CCN2Cc2ccc(OC(C)C)cc2)cc1 (configuration not stated) | nt | -27 | nt | 17 | nt | nt | 5 | 0
CCCCn1c(SCC(=O)NCCOC)nc2ccc(N3CCOCC3)cc2c1=O | i | -21 | 7 | -55 | 38 | 12 | nt | nt
COc1cccc(C2CC(C(F)(F)F)n3ncc(C(=O)O)c3N2)c1 (configuration not stated) | i | 1 | -7 | nt | -4 | -3 | 4 | 1
CCOCCCNC(=O)c1cc2c(=O)[nH]c3ccccc3c2s1 | i | nt | 2 | -8 | 10 | -2 | 5 | 4
CC(=O)N(C)Cc1ccc(C(=O)CSc2nnc(C3CC3)n2C2CC2)cc1 | nt | -13 | nt | nt | 1 | nt | 6 | 3
CCN1CCc2nc(NC(=O)Cc3ccc4c(c3)OCCO4)sc2C1 | i | 4 | 1 | -38 | -8 | -6 | -3 | 4
C=CCn1c(-c2ccc(C)cc2)nc2ccccc21 | i | -24 | -5 | -44 | -13 | -2 | -2 | 1
COc1ccccc1CCNC(=O)c1ccc(NC(=O)CC2SC(N3CCCC3)=NC2=O)cc1 (configuration not stated) | i | nt | nt | -16 | -1 | nt | 5 | 5
C/C(=N/NC(=O)c1ccoc1C)c1ccc(N2CCOCC2)cc1 | i | nt | -2 | nt | 2 | -12 | -2 | 5

Next part
SMILES | Rce1 inh | Yeast UUG start | PABP polyA inh | HIV Env fusion | CSC inhib | eIF4H inh | MT1-MMP act inh | MT1-MMP act inh RFP | others
CN(C)C(=O)c1ccc(Nc2nnc(-c3ccc(O)cc3)c3ccccc23)cc1 | i | -2 | 2 | 0 | 9 | 0 | -2 | 3
O=C(NC(Cc1ccccc1)C(=O)O)c1ccc(S(=O)(=O)N2CCCC2)cc1 (configuration not stated) | i | -3 | 19 | 11 | 27 | 2 | 2 | 0
O=C(CN1C2=NCCN2c2ccccc21)C12CC3CC(CC(C3)C1)C2 | i | -8 | -1 | nt | 5 | -13 | 4 | -1
COc1ccc(NC(=O)CSc2nnc(-c3ccccn3)n2Cc2ccco2)cc1OC | nt | -14 | -7 | 9 | -2 | -2 | 2 | -4
COc1ccc(/C=C/C(=O)NCc2ccccn2)cc1 | i | nt | -3 | nt | -32 | 6 | 3 | -1
O=C(O)c1ccccc1-n1ncc2c1/C(=C/c1ccc(Cl)cc1)CC2 | i | nt | 15 | -5 | -1 | 10 | nt | nt
CC1(C(=O)Nc2ccc3ccccc3c2)CCC(=O)N1CCc1c[nH]c2ccccc12 (configuration not stated) | nt | -11 | nt | -25 | nt | nt | -1 | 0
O=C(COC(=O)c1cccnc1Cl)NCc1cccs1 | i | -13 | 64 | -10 | -10 | -3 | 0 | -2 | eIF4H inh retest=-5;PABP polyA inh retest=2
COc1ccccc1N1CCN(c2ncnc3nc[nH]c23)CC1 | i | -20 | -20 | 2 | 6 | 9 | 3 | 2
NC(=O)C1(N2CCCCC2)CCN(CC(=O)Nc2cc(Cl)ccc2Cl)CC1 | i | nt | -7 | nt | nt | -1 | -1 | 0
CC(Nc1oc(-c2ccco2)nc1C#N)c1ccccc1 (configuration not stated) | i | -18 | -10 | nt | 54 | 1 | 4 | -2
CCN(CC(=O)NCc1cccs1)C(=O)/C=C/c1cccc(Cl)c1Cl | i | 2 | nt | 30 | -4 | nt | -2 | -2
CCOC(=O)c1c(NC(=O)Cn2nc(C(=O)O)c3ccccc3c2=O)sc(CC)c1C | i | -10 | -2 | 2 | -6 | -9 | 3 | 3
Cc1ccc(N2C(=O)c3ccc(N)cc3C2=O)cc1 | i | -25 | 14 | -102 | -8 | 8 | 0 | 1
CC(=O)Nc1ccc(C2(O)COc3ccccc3O2)cc1 (configuration not stated) | i | 6 | 2 | -46 | -2 | -9 | 3 | 3
COc1cc(-c2nc(C(=O)NC3CCN(Cc4ccccc4)CC3)cc3c2[nH]c2ccccc23)cc(OC)c1OC | i | 7 | -8 | nt | -7 | -5 | 4 | -9
COc1ccc(C(=O)COC(=O)CCNS(=O)(=O)c2ccccc2)c(OC)c1 | i | 9 | nt | -26 | -10 | nt | 0 | 2
CNc1nnc(-c2ccc(OC)cc2)s1 | i | nt | -10 | -25 | -10 | -2 | 1 | -2
CCCOc1ccc(N2C(=O)CC(SCCc3nc4ccccc4[nH]3)C2=O)cc1 (configuration not stated) | i | nt | -2 | -2 | nt | 2 | -2 | 2
O=C(Nc1cccnc1)c1cn(-c2ccccc2)nc1-c1cccs1 | i | nt | -2 | -121 | 7 | 4 | -3 | -7
O=C(c1ccc(CS(=O)c2ccccc2Cl)o1)N1CCN(c2ccccc2)CC1 (configuration not stated) | i | 2 | 5 | -233 | 51 | 0 | 7 | -14
Cc1ccc(-n2nc3ccc(N)cc3n2)c(C)c1 | i | -2 | -3 | 8 | 19 | 14 | nt | nt
CCC(C(=O)NCc1cccs1)n1nc(C)n2c(cc3occc32)c1=O (configuration not stated) | i | 1 | 7 | -10 | 6 | -4 | 2 | 3
CCOc1cccc(C(=O)Nc2ccc(N3CCCC3)cc2)c1 | i | -8 | -3 | -3 | -9 | -10 | 2 | -3
O=C(c1cc(Cl)ccc1Cl)N1CCN(c2ccccn2)CC1 | i | -3 | 8 | nt | 8 | -4 | 6 | 0

Following part:
SMILES | Rce1 inh | Yeast UUG start | PABP polyA inh | HIV Env fusion | CSC inhib | eIF4H inh | MT1-MMP act inh | MT1-MMP act inh RFP | others
Cc1ccc(S(=O)(=O)Nc2ccc(-n3cnnn3)cc2)cc1 | i | -10 | 1 | 4 | 13 | -1 | 2 | -1
COC(C[C@@H]1O[C@H]1C(=O)[C@@H](C)OCc1ccccc1)OC | i | -16 | nt | 8 | -6 | nt | 3 | 2
Cc1cccc(C)c1-n1nnnc1SCC(=O)c1c(N)n(C2CC2)c(=O)[nH]c1=O | nt | -16 | nt | -2 | -2 | nt | -6 | 0
O=C(c1ccc(COCC(F)(F)F)o1)N1CCCC1 | i | -14 | 21 | 16 | 0 | -1 | 3 | 2
CNC(=O)c1oc(-c2ccccc2)nc1C | i | nt | -5 | 9 | -8 | 4 | -5 | 0
O=S(=O)(NCc1ccc2c(c1)OCO2)c1cccc(S(=O)(=O)N2CCOCC2)c1 | i | 9 | 13 | nt | nt | 1 | -1 | 0
CN(Cc1ccccc1)S(=O)(=O)c1ccc(Cl)c(C(=O)NCc2ccncc2)c1 | i | -19 | nt | 17 | nt | nt | -1 | -13
Cc1cc(C)n(Cc2cccc(C(=O)N/N=C/c3cccnc3)c2)n1 | i | -16 | 2 | 4 | nt | -9 | -7 | -5
Brc1cccc(OCCn2ccnc2)c1 | i | -5 | -1 | -22 | -11 | 6 | -6 | 1
CCCC(c1nnnn1C1CCCCC1)N1CCN(C2CCCC2)CC1 (configuration not stated) | i | -9 | -1 | nt | -4 | -3 | 0 | 7
O=C(N/N=C/c1cc(Cl)cc([N+](=O)[O-])c1O)c1cc(-c2ccccn2)nc2ccccc12 | i | nt | 21 | 0 | 45 | 36 | -8 | 3
NC(=O)c1cc(Cl)cn(-c2ccccc2)c1=O | i | -11 | -3 | 5 | -6 | -2 | 1 | 6
CCc1sc(C(=O)NCc2ccccc2)cc1C | i | nt | -10 | 26 | -20 | -6 | 1 | 0
Cc1ccc(CN2CCN(/N=C\C=C\c3ccccc3)CC2)cc1 | i | 6 | 2 | 18 | -10 | -5 | 1 | -3

Among those listed so far, these have an aryl methoxy group.
SMILES | Rce1 inh | Yeast UUG start | PABP polyA inh | HIV Env fusion | CSC inhib | eIF4H inh | MT1-MMP act inh | MT1-MMP act inh RFP | others
COc1ccc(-c2cc(C(=O)Nc3c(C)n(C)n(-c4ccccc4)c3=O)c3ccccc3n2)cc1OC | i | -29 | 1 | 7 | -19 | -8 | 3 | 1
COc1cccc(C2CC(C(F)(F)F)n3ncc(C(=O)O)c3N2)c1 (configuration not stated) | i | 1 | -7 | nt | -4 | -3 | 4 | 1
COc1ccccc1CCNC(=O)c1ccc(NC(=O)CC2SC(N3CCCC3)=NC2=O)cc1 (configuration not stated) | i | nt | nt | -16 | -1 | nt | 5 | 5
COc1ccc(NC(=O)CSc2nnc(-c3ccccn3)n2Cc2ccco2)cc1OC | nt | -14 | -7 | 9 | -2 | -2 | 2 | -4
COc1ccc(/C=C/C(=O)NCc2ccccn2)cc1 | i | nt | -3 | nt | -32 | 6 | 3 | -1
COc1ccccc1N1CCN(c2ncnc3nc[nH]c23)CC1 | i | -20 | -20 | 2 | 6 | 9 | 3 | 2
COc1cc(-c2nc(C(=O)NC3CCN(Cc4ccccc4)CC3)cc3c2[nH]c2ccccc23)cc(OC)c1OC | i | 7 | -8 | nt | -7 | -5 | 4 | -9
COc1ccc(C(=O)COC(=O)CCNS(=O)(=O)c2ccccc2)c(OC)c1 | i | 9 | nt | -26 | -10 | nt | 0 | 2
CNc1nnc(-c2ccc(OC)cc2)s1 | i | nt | -10 | -25 | -10 | -2 | 1 | -2

A portion of the library; the hit share may differ from the screen's.
